# BJeLR viability – kills HRASV12-expressing BJeLR cells | BJeLR (HRASV12) viability, CellTiter-Glo ATP luminescence, 48 h; reference of the scale not given here | inhibition, % (no concentration beside the values) | actives 0.17% (n = 300,000);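 active = replicate mean above 50%; inconclusive = above 50% but judged a plate artefact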;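 note: 50 nL library stock added to about 25 µL; numbers are from one replicate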
# Autofluor counter – compound fluorescence in toxin protease inhibitor counterscreen. compound autofluorescence counterscreen, microsphere flow cytometry; active compounds read high. fluorescence intensity (test concentration not listed). actives 3.1% (n = 360,000);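 active = at least 3 SD above the mean of all compounds, about 16000 in these data; inconclusive = too few beads counted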;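 note: 100 nL of 1 mM stock went into each well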
# Sa RN4220 lethal – S. aureus RN4220 growth inhibition; OD600, 16 h; inhibition, % (no concentration beside the values); actives 0.33% (n = 330,000); AID 1259311;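 active = z-score of -3 or lower and OD600 up to 0.18 on both plates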;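 note: plate controls were untreated cells for no effect and reference antibiotic for full effect; stock transfer was 100 nL into about 80 µL; one replicate is shown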
# PrP 5UTR inh – inhibition of PrP 5' UTR reporter expression; cell-based PrP 5' UTR mRNA reporter, plate reader; inhibition, % (concentration not given with the values); actives 0.35% (n = 340,000); AID 488862;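 active = every replicate at 50% or more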;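 note: 0 = median of the neutral control wells; tested in H4 reporter cells; numbers are from one replicate; inactives centre near -14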
# Mtb hypoxia inh – reduces hypoxia-regulated biosensor signal in M. tuberculosis; M. tuberculosis hypoxia-regulated fluorescent reporter, fluorescence; fluorescence inhibition, % (test concentration not listed); actives 0.1% (n = 300,000); AID 1159583;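 active = 35 to 45% if threefold the growth effect, above 45% if 1.5-fold the growth effect; inactive = the rest, general growth blockers included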;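 note: wells of about 50 µL received 100 nL stock; 0% = vehicle wells and 100% = reference inhibitor wells; whole bacteria with a GFP reporter of the hypoxia response; strong numbers were not always called active; many hits fall short of the cut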
# ugtP null kill – growth inhibition of S. aureus ugtP deletion strain | S. aureus RN4220 ugtP deletion, OD600 growth, 16 h; some inactives read as strong as hits | growth inhibition, % (concentration not given with the values) | actives 0.54% (n = 330,000) | AID 1259309;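 active = z-score under -3 and OD600 up to 0.15 on both plates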;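 note: plate controls were untreated wells for no effect and antibiotic for full effect; wells of about 80 µL received 100 nL stock; the first replicate is given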
# Mtb hypoxia inh growth – second read-out of Mtb hypoxia inh, no call of its own (marks repeat the call); growth inhibition, %; measured here: M. tuberculosis growth (absorbance);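 0% = vehicle and 100% = reference antibiotic; read after six days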
# Starred values were filed as active, the others as inactive; ? = inconclusive; . = no result given.
Structure	BJeLR viability	Autofluor counter	Sa RN4220 lethal	PrP 5UTR inh	Mtb hypoxia inh	Mtb hypoxia inh growth	ugtP null kill
CSc1ncc(Cl)c(C(=O)Nc2nnc(SC/C=C/c3ccccc3)s2)n1	-12	16062	56	-17	7	6	37
CC1(CC(=O)NN=Cc2ccc(OCc3ccc(Cl)cc3Cl)cc2)OCCCO1	.	.	10	.	2	-2	8
Cc1ccc(NC2CC(=O)N(c3ccc(N4CCCCC4)cc3)C2=O)cc1 (centres undefined)	7	7540	5.2	-6	-2	7	11
CC1=NNC(=O)C1Cc1ccc(F)cc1 (centres undefined)	-3	3715	3.0	-15	-1	-5	2
CCCc1nnc(NC(=O)CCC(=O)N2CCC3(CC2)OCCO3)s1	-10	5722	3.1	-10	-2	-2	9
C#CCOCCOCCOCCNc1nc(N2CCN(C(=O)[C@H](CCCCN)n3cc(CC(C)O)nn3)CC2)nc(N2CCN(C(=O)[C@H](CCCCN)n3cc(CC(C)O)nn3)CC2)n1 (some centres undefined)	.	3655	-13	-11	-1	8	-5
O=c1cnc2cc([N+](=O)[O-])ccc2[nH]1	-2	2173	12	-18	-11	-10	2
CCc1ccc2c(CN3CCN(S(=O)(=O)c4ccc5c(c4)OCCO5)CC3)cc(=O)oc2c1	-2	3581	0.6	-17	14	10	-3
CCOc1ccc(C2C(C#N)=C(N)N(N(C)C)C3=C2C(=O)CCC3)cc1 (centres undefined)	-10	4132	5.2	-5	1	5	1
COC(=O)NNC(=O)COc1ccc(Cl)cc1	5	16065	5.9	-7	0	3	9
CCOC(=O)CN(C)S(=O)(=O)c1ccc(-c2cc(C(=O)OC)sc2C(F)(F)F)cc1	-2	.	9.3	.	-6	-8	-6
Cc1ccc(N2CCN(C(=O)c3cccc([N+](=O)[O-])c3)CC2)cc1Cl	5	4285	0.1	-7	8	-1	-5
COc1ccc(Cl)cc1N(CC(=O)N1CCCC1)S(C)(=O)=O	-6	3583	-1.0	-16	-7	16	-2
CC1CCCN(S(=O)(=O)c2ccc(C(=O)Nc3nnc(C4=COCCO4)o3)cc2)C1 (centres undefined)	8	?	.	-7	.	.	.
CCn1c(C)cc(C(=O)CN2C(=O)c3ccccc3S2(=O)=O)c1C	.	3751	3.5	67*	3	3	9
Cc1ccc(C)c(NC(=O)CN(C)C(=O)c2cc([N+](=O)[O-])ccc2N2CCOCC2)c1	-2	5680	3.0	3	6	4	8
CC(=O)Nc1ccc(NC(=O)C2CCN(c3c(Cc4ccccc4)c(C)nc4ncnn34)CC2)cc1	-6	3431	-9.9	-12	-5	8	-4
N#C/C(=C\c1ccc(Cl)cc1)C(=O)Nc1cccnc1	-7	4266	3.2	-14	-4	-3	11
COc1cc(OC)c(OC)cc1C=Nn1c(-c2n[nH]c3c2CCC3)n[nH]c1=S	.	.	5.8	.	8	4	4
CC(C)CN1CCN=C1Nc1ccccc1	-5	4061	-0.5	-11	1	0	-14

# In a second layout: results already given.
Cc1ccc(N2CCN(C(=O)c3cccc([N+](=O)[O-])c3)CC2)cc1Cl
  BJeLR viability: 5; Autofluor counter: 4285; Sa RN4220 lethal: 0.1; PrP 5UTR inh: -7; Mtb hypoxia inh: 8; Mtb hypoxia inh growth: -1; ugtP null kill: -5
CC1CCCN(S(=O)(=O)c2ccc(C(=O)Nc3nnc(C4=COCCO4)o3)cc2)C1 (centres undefined)
  BJeLR viability: 8; Autofluor counter: ?; Sa RN4220 lethal: .; PrP 5UTR inh: -7; Mtb hypoxia inh: .; Mtb hypoxia inh growth: .; ugtP null kill: .
COc1ccc(Cl)cc1N(CC(=O)N1CCCC1)S(C)(=O)=O
  BJeLR viability: -6; Autofluor counter: 3583; Sa RN4220 lethal: -1.0; PrP 5UTR inh: -16; Mtb hypoxia inh: -7; Mtb hypoxia inh growth: 16; ugtP null kill: -2

# Next compounds.
Structure	BJeLR viability	Autofluor counter	Sa RN4220 lethal	PrP 5UTR inh	Mtb hypoxia inh	Mtb hypoxia inh growth	ugtP null kill
O=C(NC1C2CC3CC(C2)CC1C3)C1CCCCC1 (centres undefined)	-1	3326	1.3	-13	.	.	3
CCOc1ccc2nc(SCC(=O)N3CCCCCC3)c(C#N)cc2c1	0	3144	3.0	4	.	.	-6
CCOc1cc(C=NN=Cc2ccc(O)c(OCC)c2)ccc1O	.	.	2.6	.	0	-6	7
Nc1nc(-c2ccc(Cl)cc2)nnc1-c1ccc(Br)cc1	6	5033	14	-105	10	8	8
Cc1c(/C=C(\CC(=O)O)c2nc3ccccc3s2)cc(C#N)n1C	-1	4249	8.9	-18	8	17	4
COc1ccccc1/C=C/C=NNC(=O)c1cc(-c2ccc(C)o2)[nH]n1	.	.	-0.5	.	17	13	-7
CC(NS(=O)(=O)OCC(Cl)(Cl)Cl)c1ccc(C(C)(C)C)cc1 (centres undefined)	-8	2948	17	-14	2	4	23
CC=Cc1cc(OC)c2c(c1)C(C)C(c1ccc(O)c(OC)c1)O2 (centres undefined)	.	3139	11	-4	4	9	-3
COc1ccc(NC(=O)Nc2cc(C)ccc2OC(F)F)c(OC)c1	-23	22223*	9.4	-6	10	14	19
CCOC(=O)N1CCN(C(=O)c2cccc(-n3c(=S)[nH]c4cc(Cl)ccc4c3=O)c2)CC1	-11	20777*	7.9	-47	2	4	-35
COc1ccc(-c2nc(SCc3ccc(C#N)cc3)[nH]c(=O)c2C#N)cc1	0	3247	9.7	-21	8	3	3
O=C(COc1cccc2cccnc12)Nc1cccc(S(=O)(=O)N2CCCC2)c1	.	3232	-3.9	3	-5	4	-19
Cc1cccc(C(=O)c2c(N)sc3c2CCC(C)C3)c1 (centres undefined)	2	10165	6.6	36	1	7	5
O=C(N/N=C\c1cc(Cl)ccc1O)c1ccc(S(=O)(=O)N2CCCCC2)cc1	35	6921	.	41	.	.	.
COc1ccccc1C(=O)n1nc(-c2ccccc2)nc1NCc1ccco1	4	10403	1.7	.	2	4	-5
COc1ccc(-c2cc(C)no2)cc1S(=O)(=O)N1CCN(C(=O)c2ccco2)CC1	3	4143	1.0	-25	-1	5	4
CCCC(C(=O)NC1CCCC1)N(Cc1cccs1)C(=O)c1snc(C(N)=O)c1N (centres undefined)	8	9449	0.7	-27	0	4	-1
COc1ccc(Cn2c(=O)sc3ccccc32)cc1	3	4332	8.0	-7	5	6	13
Cc1cc(=O)[nH]c(SCc2cccc(F)c2)n1	0	4755	4.8	-5	.	.	1
COC(=O)C1=C(c2cc3ccccc3s2)C[C@@H]2CC[C@H]1N2C(=O)NCCS(C)=O (some centres undefined)	-2	3504	.	-3	.	.	.
Fc1cccc(-c2c(-c3ccccc3)ncc3cc(F)ccc23)c1	.	3984	0.0	-21	14	14	11
CCC1=Nc2cc(C(=O)N3CCC4(CC3)OCCO4)ccc2Sc2ccc(C)cc21	-7	5729	2.9	-12	8	-3	-1
CCOc1ccc(NC(=O)C(c2ccccn2)N(C(=O)CCl)c2ccc(OCC)cc2)cc1 (centres undefined)	.	1986	14	-48	6	3	-2
COc1ccc(CCNC(=O)CCSCc2ccccc2F)cc1OC	11	3605	7.9	-46	11	2	9
CCOC(=O)c1cnc2ccc(C(=O)OC)cc2c1NCCCN1CCOCC1	1	3585	0.3	-10	11	4	0
CCOc1ccc(N(CC(=O)Nc2ccc(C)cc2C)S(C)(=O)=O)cc1	1	3286	7.3	-5	13	1	5
O=C(c1ccccc1C(=O)N1CCN(c2ccccc2F)CC1)N1CCN(c2ccccc2F)CC1	6	3399	5.1	-7	8	-2	-2
O=C(CCN1C(=O)/C(=C/c2ccccc2)SC1=S)NNC(=O)c1ccncc1	7	4730	0.2	-15	-10	-15	-1
CCOC(=O)c1cnc(SC)nc1Sc1ccc(Cl)cc1Cl	-9	2183	-8.6	-5	.	.	38
COc1ccc(NC(=O)CSc2nc3ccccc3c(=O)n2CCCN2CCC(C)CC2)c(OC)c1	6	3659	-0.3	-5	9	-2	4
COc1ccc(C2C(C(=O)N3CCN(c4ccccn4)CC3)CC(=O)N2c2ccc(OC)cc2)cc1 (centres undefined)	5	4445	4.9	-5	-6	4	-2
COc1cc(/C=N/NC(=O)c2cccc(NC(=O)c3ccccc3C)c2)ccc1O	6	4218	.	-26	.	.	.
COc1ccc(NS(=O)(=O)c2c(C)cc(C)cc2C)cc1	-12	3419	6.8	-15	8	2	42
Cc1ccccc1N1C(=O)C(Oc2ccc(Cl)cc2)C1CNCCCOC(C)C (centres undefined)	-1	11058	-3.5	-16	3	16	4
CC(C)Cn1c(N)c(C(=O)COC(=O)c2cnccn2)c(=O)n(C)c1=O	-6	4400	6.2	-16	-3	-7	12
C/C(=N\NC(=O)c1cc(-c2ccncc2)nc2ccccc12)c1ccc(N2CCOCC2)cc1	-5	2601	.	-13	.	.	.
CC(C)N(C(=O)CS(=O)(=O)c1ccc(Cl)c(Cl)c1)C(C)C	-1	3710	3.1	-21	8	-2	1
COc1ccccc1CNC(=O)C1CC(c2ccccc2F)=NO1 (centres undefined)	3	3778	3.6	-14	6	8	4
CCOc1ccccc1NS(=O)(=O)c1csc(C(N)=O)c1	14	3535	1.8	-18	8	4	5
COc1ccc(/C=C/C2=CCN(Cc3ccc(OC)cc3)CC2)cc1	-6	5045	.	-18	.	.	.
ON=C(CCc1ccccc1)C1(O)CCCCC1	.	.	8.4	.	19	10	7
CCOC(=O)C1CCN(S(=O)(=O)c2ccc3[nH]c4c(c3c2)CCCC4)CC1	1	5358	2.7	-4	11	5	-7
COc1ccc(C)cc1NC(=O)CSc1nnc(CC(=O)Nc2ccccc2C)n1C	-3	7834	-1.3	-20	6	15	7
O=C(NCc1cccnc1)NC1CCCCC1	1	8030	3.7	-25	3	12	12
O=C(CN1C(=O)NC2(CCc3ccccc32)C1=O)Nc1cccc(Cl)c1 (centres undefined)	.	4218	-1.4	-19	-9	7	-9
CCCCOc1ccc(C=CC(=O)OCC(=O)c2c(N)n(C)c(=O)n(C)c2=O)cc1OCC	.	.	4.3	.	2	3	-4
CN1CN(C)c2cccc3cccc1c23	6	4575	0.8	-20	3	3	-2
COc1ccc(C#Cc2c(-c3ccsc3)oc3ccc(-c4cc(OC)c(OC)c(OC)c4)cc23)cc1	7	4067	6.9	-12	-2	5	-1
S=C(c1ccc2c(c1)OCO2)N1CCCC1	-3	2499	0.1	-8	9	6	2
CN(C(=O)CN1C(=O)c2ccccc2S1(=O)=O)c1ccccc1C(=O)O	4	11522	1.8	-11	14	-1	5

# (listing goes on)
Structure	BJeLR viability	Autofluor counter	Sa RN4220 lethal	PrP 5UTR inh	Mtb hypoxia inh	Mtb hypoxia inh growth	ugtP null kill
O=C(NC(NC1CCS(=O)(=O)C1)C(=O)c1ccccc1)c1ccc(Cl)cc1 (centres undefined)	-2	8070	3.5	-31	10	7	4
N#CCCn1cc(/C=N/O)c(-c2ccc(-c3ccccc3)cc2)n1	1	2387	.	4	.	.	.
CCn1c(SCC(=O)Nc2ccc(Cl)cc2)nnc1C1CC1	-9	5615	5.4	-14	.	.	10
O=C1C2C3C=CC(CO)(O3)C2C(=O)N1c1ccccc1-c1ccccc1 (centres undefined)	.	5518	4.5	-13	15	3	8
Cn1c(N)c(C(=O)COC(=O)COc2ccc(Cl)cc2)c(=O)n(C)c1=O	.	8938	3.1	-11	3	8	0
O=C(CSc1nc(Nc2ccccc2)nc(N2CCOCC2)n1)Nc1ccc(Br)cc1F	0	5386	-3.2	-14	-3	6	-6
CCSCc1nc(N)nc(NCCc2ccccc2)n1	2	3162	10.0	-7	14	4	1
COc1ccc(CC(=O)Nc2ccc(N3CCOCC3)cc2)cc1S(=O)(=O)N1CCOCC1	2	4966	-0.7	-6	10	2	2
CC(=O)C1=C(O)C(=O)N(c2ccc(Br)cn2)C1c1ccccc1[N+](=O)[O-] (centres undefined)	-2	3768	-4.4	-3	-7	0	13
COc1ccc(C)cc1NC(=S)N1CCN(c2ccccn2)CC1	-9	2492	6.4	-15	11	8	6
Cn1c(=O)c2c(SCC(=O)N3CCOCC3)nc(C3CC3)nc2n(C)c1=O	-1	5189	-10	-25	3	0	-4
CCn1cc(C(=O)Nc2ccccc2)c(=O)c2ccc(C)nc21	1	.	9.4	.	0	-2	1
CC1CCC2(CC1)NC(=O)N(CC(=O)c1cn(CCC#N)c3ccccc13)C2=O (centres undefined)	2	5623	1.8	-31	-6	1	7
COc1cccc(NC(=O)Cc2ccccc2)c1	1	3861	6.1	-39	10	2	-3

# Screens deposited in PubChem BioAssay by several laboratories.
